Source: PubChem (Broad Institute)
AF4-AF9 inh – blocks AF4 peptide binding to human AF9; AlphaScreen, biotin-AF4 peptide binding to FLAG-AF9; inhibition, % at 10 µM; 350,000 compounds, 0.47% hits; AID 651704;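 active = every replicate reaching a set inhibition limit, whatever the replicate mean, cut at about 25% in these data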;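 note: 0% = plate neutral control median and 100% = total signal loss; the record names both 10 and 1 µM as test concentration; the first replicate is given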
Target sequence (P42568 whole entry, looked up): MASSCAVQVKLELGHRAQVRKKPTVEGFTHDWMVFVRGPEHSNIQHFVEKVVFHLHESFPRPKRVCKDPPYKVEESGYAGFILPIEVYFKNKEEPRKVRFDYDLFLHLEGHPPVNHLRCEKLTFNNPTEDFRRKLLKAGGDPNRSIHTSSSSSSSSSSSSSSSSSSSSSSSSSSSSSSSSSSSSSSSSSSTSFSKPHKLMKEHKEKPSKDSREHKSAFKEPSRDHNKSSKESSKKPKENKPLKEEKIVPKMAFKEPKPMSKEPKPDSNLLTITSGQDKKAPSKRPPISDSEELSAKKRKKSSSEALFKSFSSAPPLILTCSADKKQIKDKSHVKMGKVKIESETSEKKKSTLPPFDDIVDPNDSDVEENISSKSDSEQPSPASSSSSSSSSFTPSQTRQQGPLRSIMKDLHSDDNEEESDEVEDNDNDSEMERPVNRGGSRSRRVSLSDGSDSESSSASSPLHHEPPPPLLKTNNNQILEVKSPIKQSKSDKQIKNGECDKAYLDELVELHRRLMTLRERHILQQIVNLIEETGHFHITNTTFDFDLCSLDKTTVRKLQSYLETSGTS
rRNA inh HTS – inhibits bacterial ribosomal RNA function over humanized ribosomes. AID 720706. GFP signal change (wild-type ribosome), % (concentration not given with the values). 350,000 compounds, 1.6% hits. E. coli WT GFP vs humanized-ribosome RFP mutants, fluorescence, 24 h; hits give low values; DMSO median 0, no signal -100;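 active = significant combined selectivity score with lowered wild-type GFP, culture density cut under 30%, mutant RFP and density less affected; inactive = any of these conditions unmet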; note: one replicate is shown; some compounds called inactive have numbers as strong as hits
rRNA inh HTS OD600 – recorded beside rRNA inh HTS, whose call it bears; OD600 change, %; measured here: OD600 growth;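 optical density of the mix in the first replicate; 0 = DMSO median and -100 = no signal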
rRNA inh HTS RFP – second read-out of rRNA inh HTS, no call of its own (marks repeat the call); RFP signal change, %; measured here: RFP humanized mutant strains;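 first replicate; 0 = DMSO median and -100 = no signal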
Active calls of the source: *; & = joins results of further samples. Some of the compounds tested; count on the stated rates, not on these rows.

What do the screens show for `COC(=O)[C@H](Cc1ccccc1)N1CC=CS1(=O)=O`?
AF4-AF9 inh: -1.5; rRNA inh HTS: 14; rRNA inh HTS OD600: 5; rRNA inh HTS RFP: 1.6

Results for CCC(=O)Nc1ccc2c(c1)C(=O)N(C)[C@@H]1CC[C@@H](CC(=O)NC3CCCC3)O[C@@H]1CO2 ?
AF4-AF9 inh: -4.5; rRNA inh HTS: 3; rRNA inh HTS OD600: 2; rRNA inh HTS RFP: -1.0

How did CC(C)NC(=O)N1CC2(C1)[C@@H](c1ccccc1)[C@H](CO)N2C(=O)C1CCCCC1 do in these assays?
AF4-AF9 inh: -13; rRNA inh HTS: 0; rRNA inh HTS OD600: 4; rRNA inh HTS RFP: -1.6

What do the screens show for `CC(C)CC#Cc1ccc([C@@H]2[C@@H](CO)N3CCCCN(C(=O)NC4CCCC4)C[C@H]23)cc1`?
AF4-AF9 inh: -5.5; rRNA inh HTS: -59; rRNA inh HTS OD600: -65; rRNA inh HTS RFP: -7.8

Results for CN1CCN(C(=O)C[C@@H]2C[C@@H]3c4cc(NC(=O)C5CCOCC5)ccc4O[C@@H]3[C@@H](CO)O2)CC1 ?
AF4-AF9 inh: 0.2; rRNA inh HTS: 0; rRNA inh HTS OD600: -4; rRNA inh HTS RFP: -3.0

How did C[C@H]1CN([C@@H](C)CO)C(=O)c2cccc(NC(=O)C3CC3)c2O[C@@H]1CN(C)C(=O)Nc1cccc2ccccc12 do in these assays?
AF4-AF9 inh: -1.4; rRNA inh HTS: 1; rRNA inh HTS OD600: 0; rRNA inh HTS RFP: 5.1

Results for C[C@@H]1CN([C@H](C)CO)C(=O)c2cc(NS(=O)(=O)c3ccc(F)cc3)ccc2O[C@H]1CN(C)Cc1ccc(Cl)c(Cl)c1 ?
AF4-AF9 inh: 0.6; rRNA inh HTS: -7; rRNA inh HTS OD600: -18; rRNA inh HTS RFP: 0.8

What do the screens show for `Cc1ccccc1S(=O)(=O)N1CCCCN2[C@H](CO)[C@H](c3ccc(-c4cccnc4)cc3)[C@@H]2C1`?
AF4-AF9 inh: 0.4; rRNA inh HTS: -24; rRNA inh HTS OD600: -57; rRNA inh HTS RFP: 9.9

What do the screens show for `Cn1nc(C(C)(C)C)cc1N1C(=O)CCC1(C)C(=O)NC1CCCCC1` (configuration not stated)?
AF4-AF9 inh: -5.3; rRNA inh HTS: 7; rRNA inh HTS OD600: 12; rRNA inh HTS RFP: 0.6

Results for COc1ccccc1S(=O)(=O)N[C@H]1CC[C@H](CCNC(=O)C2CC2)O[C@@H]1CO ?
AF4-AF9 inh: -0.9; rRNA inh HTS: 0; rRNA inh HTS OD600: -4; rRNA inh HTS RFP: -0.6

7 compounds out of the list, arranged by length of the SMILES, falling:
Results for C[C@@H]1CN([C@H](C)CO)C(=O)c2cc(NS(=O)(=O)c3ccc(F)cc3)ccc2O[C@H]1CN(C)Cc1ccc(Cl)c(Cl)c1 ?
AF4-AF9 inh: 0.6; rRNA inh HTS: -7; rRNA inh HTS OD600: -18; rRNA inh HTS RFP: 0.8

How did C[C@H]1CN([C@@H](C)CO)C(=O)c2cccc(NC(=O)C3CC3)c2O[C@@H]1CN(C)C(=O)Nc1cccc2ccccc12 do in these assays?
AF4-AF9 inh: -1.4; rRNA inh HTS: 1; rRNA inh HTS OD600: 0; rRNA inh HTS RFP: 5.1

What do the screens show for `Cc1ccccc1S(=O)(=O)N1CCCCN2[C@H](CO)[C@H](c3ccc(-c4cccnc4)cc3)[C@@H]2C1`?
AF4-AF9 inh: 0.4; rRNA inh HTS: -24; rRNA inh HTS OD600: -57; rRNA inh HTS RFP: 9.9

How did CC(C)NC(=O)N1CC2(C1)[C@@H](c1ccccc1)[C@H](CO)N2C(=O)C1CCCCC1 do in these assays?
AF4-AF9 inh: -13; rRNA inh HTS: 0; rRNA inh HTS OD600: 4; rRNA inh HTS RFP: -1.6

Results for COc1ccccc1S(=O)(=O)N[C@H]1CC[C@H](CCNC(=O)C2CC2)O[C@@H]1CO ?
AF4-AF9 inh: -0.9; rRNA inh HTS: 0; rRNA inh HTS OD600: -4; rRNA inh HTS RFP: -0.6

What do the screens show for `Cn1nc(C(C)(C)C)cc1N1C(=O)CCC1(C)C(=O)NC1CCCCC1` (configuration not stated)?
AF4-AF9 inh: -5.3; rRNA inh HTS: 7; rRNA inh HTS OD600: 12; rRNA inh HTS RFP: 0.6

What do the screens show for `COC(=O)[C@H](Cc1ccccc1)N1CC=CS1(=O)=O`?
AF4-AF9 inh: -1.5; rRNA inh HTS: 14; rRNA inh HTS OD600: 5; rRNA inh HTS RFP: 1.6

Additional compounds:
How did C[C@@H]1CN([C@H](C)CO)S(=O)(=O)c2ccc(C#Cc3ccncc3)cc2O[C@H]1CN(C)C do in these assays?
AF4-AF9 inh: -5.5; rRNA inh HTS: -3; rRNA inh HTS OD600: -3; rRNA inh HTS RFP: 4.3

How did CC1(C(=O)NC2CCN(Cc3ccccc3)CC2)CCN1Cc1ccc2ccccc2c1 (configuration not stated) do in these assays?
AF4-AF9 inh: 1.4; rRNA inh HTS: -1; rRNA inh HTS OD600: -19; rRNA inh HTS RFP: 1.6

What do the screens show for `O=C(c1ccccc1F)N1CC(=O)N2[C@H](CO)[C@H](c3ccc(-c4cccnc4)cc3)[C@H]2C1`?
AF4-AF9 inh: -0.1; rRNA inh HTS: 2; rRNA inh HTS OD600: 9; rRNA inh HTS RFP: -5.9

Results for COc1ccc(C(=O)ON=C(C)c2nccs2)cc1 ?
AF4-AF9 inh: -3.2; rRNA inh HTS: 17; rRNA inh HTS OD600: 16; rRNA inh HTS RFP: 1.7

Results for O=C(Nc1cc(F)ccc1F)N1C[C@H]2[C@@H](c3ccccc31)[C@H](CO)N2Cc1ccncc1 ?
AF4-AF9 inh: -1.2; rRNA inh HTS: -3; rRNA inh HTS OD600: 3; rRNA inh HTS RFP: -1.1

How did C[C@@H]1CN([C@@H](C)CO)C(=O)c2cc(NC(=O)CCN3CCOCC3)ccc2O[C@H]1CN(C)C(=O)Nc1ccc(F)cc1 do in these assays?
AF4-AF9 inh: -0.5; rRNA inh HTS: 7; rRNA inh HTS OD600: 8; rRNA inh HTS RFP: -1.4

How did C[C@@H]1CN([C@@H](C)CO)C(=O)c2cccc(NS(=O)(=O)c3ccc(Cl)cc3)c2O[C@@H]1CN(C)Cc1ccc2c(c1)OCO2 do in these assays?
AF4-AF9 inh: 7.3; rRNA inh HTS: 4; rRNA inh HTS OD600: -5; rRNA inh HTS RFP: 1.3

What do the screens show for `COC(=O)C[C@H]1C[C@@H]2c3cc(NS(=O)(=O)c4ccc(F)cc4)ccc3O[C@@H]2[C@@H](CO)O1`?
AF4-AF9 inh: 1.6; rRNA inh HTS: -2; rRNA inh HTS OD600: -3; rRNA inh HTS RFP: 0.4

How did CC1=C(C(=O)N(C(C)C)C(C)C)CC(CC(=O)NCCCN(C)C)C(=O)N1Cc1ccc(C(C)(C)C)cc1 (configuration not stated) do in these assays?
AF4-AF9 inh: 1.6; rRNA inh HTS: 6; rRNA inh HTS OD600: 7; rRNA inh HTS RFP: 2.0

Results for COc1cccc(-c2cnc3c(NC(C)=O)cc(-c4cccc(NC(C)=O)c4)cn23)c1 ?
AF4-AF9 inh: -3.6; rRNA inh HTS: -3; rRNA inh HTS OD600: -19; rRNA inh HTS RFP: -0.3

How did N#C[C@@H]1[C@H](c2ccccc2-c2ccccc2)[C@@H](CO)N1C(=O)Cc1ccncc1 do in these assays?
AF4-AF9 inh: -0.9; rRNA inh HTS: -3; rRNA inh HTS OD600: 10; rRNA inh HTS RFP: 1.1

How did Cc1ccccc1-c1ccc2c(c1)O[C@@H](CN(C)C(=O)Nc1ccccc1)[C@H](C)CN([C@@H](C)CO)S2(=O)=O do in these assays?
AF4-AF9 inh: -1.5; rRNA inh HTS: -5; rRNA inh HTS OD600: -31; rRNA inh HTS RFP: -3.8

Results for CO[C@H]1CN(C)C(=O)c2cc(NS(=O)(=O)c3ccccc3F)ccc2OC[C@H](C)NC[C@H]1C ?
AF4-AF9 inh: -1.5; rRNA inh HTS: 3; rRNA inh HTS OD600: 3; rRNA inh HTS RFP: -0.7

Results for CCC(=O)N(C)C[C@H]1Oc2cc(C#Cc3ccccn3)ccc2S(=O)(=O)N([C@@H](C)CO)C[C@H]1C ?
AF4-AF9 inh: -2.7; rRNA inh HTS: 1; rRNA inh HTS OD600: 11; rRNA inh HTS RFP: 1.2

What do the screens show for `CN(C)CC(=O)N[C@H]1CC[C@@H](CCn2cc(CN(C)C)nn2)O[C@H]1CO`?
AF4-AF9 inh: -11; rRNA inh HTS: 7&0; rRNA inh HTS OD600: 7&0; rRNA inh HTS RFP: -1.0&-2.9

What do the screens show for `O=C(c1cccnc1)N1C[C@H]2[C@@H](c3ccccc31)[C@@H](CO)N2Cc1ccc2c(c1)OCO2`?
AF4-AF9 inh: 0.8; rRNA inh HTS: 3; rRNA inh HTS OD600: 4; rRNA inh HTS RFP: 0.0

What do the screens show for `N#C[C@@H]1[C@@H](c2ccc(-c3ccccc3F)cc2)[C@H](CO)N1C(=O)C1CCC1`?
AF4-AF9 inh: -0.3; rRNA inh HTS: 4; rRNA inh HTS OD600: -16; rRNA inh HTS RFP: 2.5

Results for O=C(NCc1ccc(F)c(F)c1)c1cccc2c(-c3cccnc3)coc12 ?
AF4-AF9 inh: -0.4; rRNA inh HTS: -54; rRNA inh HTS OD600: -75; rRNA inh HTS RFP: -16

How did COc1ccc(S(=O)(=O)Nc2ccc3c(c2)C(=O)N([C@H](C)CO)C[C@H](C)[C@H](CN(C)C)O3)cc1 do in these assays?
AF4-AF9 inh: -1.4; rRNA inh HTS: 2; rRNA inh HTS OD600: 0; rRNA inh HTS RFP: -0.2

Results for COc1cccc(-c2cnc3c(c2)C(=O)N([C@@H](C)CO)C[C@@H](C)[C@H](CN(C)C(C)=O)O3)c1 ?
AF4-AF9 inh: -0.7; rRNA inh HTS: 3; rRNA inh HTS OD600: 19; rRNA inh HTS RFP: 2.0

What do the screens show for `Cc1cc(C)n2c(NC3CCCCC3)c(-c3ccc(F)cc3)nc2n1`?
AF4-AF9 inh: 0.2; rRNA inh HTS: -1; rRNA inh HTS OD600: 0; rRNA inh HTS RFP: 2.7

What do the screens show for `Cc1ccc(S(=O)(=O)Nc2ccc3c(c2)C(=O)N([C@H](C)CO)C[C@@H](C)[C@@H](CN(C)S(=O)(=O)c2ccc(C)cc2)OCCCC[C@@H](C)O3)cc1`?
AF4-AF9 inh: -0.6; rRNA inh HTS: 4; rRNA inh HTS OD600: 5; rRNA inh HTS RFP: -2.6

Results for CC(C)NC(=O)N(C)C[C@@H]1Oc2cc(-c3ccncc3)ccc2S(=O)(=O)N([C@H](C)CO)C[C@H]1C ?
AF4-AF9 inh: -4.8; rRNA inh HTS: 3; rRNA inh HTS OD600: -5; rRNA inh HTS RFP: -3.3

What do the screens show for `COCC(=O)Nc1ccc2c(c1)C(=O)N(C)[C@@H]1CC[C@H](CC(=O)NCc3ccccc3)O[C@@H]1CO2`?
AF4-AF9 inh: -0.2; rRNA inh HTS: 4; rRNA inh HTS OD600: 5; rRNA inh HTS RFP: -2.2

What do the screens show for `O=C(C[C@H]1CC[C@@H](NC(=O)Nc2ccccc2F)[C@@H](CO)O1)NCc1ccccc1`?
AF4-AF9 inh: -0.5; rRNA inh HTS: -4; rRNA inh HTS OD600: -5; rRNA inh HTS RFP: 0.8

How did CC(C)C#Cc1ccc2c(c1)O[C@H](CN(C)Cc1ccncc1)[C@@H](C)CN([C@H](C)CO)S2(=O)=O do in these assays?
AF4-AF9 inh: 7.5; rRNA inh HTS: -22; rRNA inh HTS OD600: -44; rRNA inh HTS RFP: 38

What do the screens show for `C[C@@H]1CN([C@H](C)CO)C(=O)c2cc(NC(=O)CCC(F)(F)F)ccc2O[C@@H]1CN(C)S(=O)(=O)c1cccs1`?
AF4-AF9 inh: -4.6; rRNA inh HTS: 0; rRNA inh HTS OD600: -8; rRNA inh HTS RFP: -3.6

What do the screens show for `C[C@H](CO)N1C[C@H](C)[C@H](CN(C)Cc2ccc(C(=O)Nc3ccccc3N)cc2)Oc2c(NC(=O)Nc3cccc4ccccc34)cccc2C1=O`?
AF4-AF9 inh: -1.3; rRNA inh HTS: -4; rRNA inh HTS OD600: -14; rRNA inh HTS RFP: 4.3

How did CCCNC(=O)C[C@H]1CC[C@H]2[C@@H](COC[C@H](O)CN2C(=O)Nc2ccc3c(c2)OCO3)O1 do in these assays?
AF4-AF9 inh: 1.1; rRNA inh HTS: -1; rRNA inh HTS OD600: -3; rRNA inh HTS RFP: 1.5

Results for COc1cccc(C#Cc2cnc3c(c2)C(=O)N([C@H](C)CO)C[C@H](C)[C@@H](CN(C)C(=O)C2CC2)O3)c1 ?
AF4-AF9 inh: 7.4; rRNA inh HTS: 5; rRNA inh HTS OD600: 4; rRNA inh HTS RFP: 0.3

Results for Cc1cccn2c(=O)c3cc(C(=O)NCc4ccc(F)cc4)c(=N)n(CCCN4CCOCC4)c3nc12 ?
AF4-AF9 inh: -8.6; rRNA inh HTS: 11; rRNA inh HTS OD600: 11; rRNA inh HTS RFP: -5.1

How did CCNC(=O)C[C@@H]1CC[C@@H]2[C@H](COC[C@H](O)CN2C(=O)Nc2ccc(Cl)c(Cl)c2)O1 do in these assays?
AF4-AF9 inh: -2.4; rRNA inh HTS: -58; rRNA inh HTS OD600: -78; rRNA inh HTS RFP: -22
